Measles inh: inhibitors of measles virus growth in infected cells; infected Vero cells, GFP fluorescence, 64 h; hits give low values; z-score (test concentration not listed); 0.1% of 33,000 active; AID 745;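 active = z-score under -3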;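 note: score is relative to mean and SD of the compound wells of a plate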
Active calls of the source: *. Some of the compounds tested; count on the stated rates, not on these rows.

Molecule | Measles inh
CCOc1ccc(NC(=O)NCCN2C(C)CCCC2C)cc1 (stereo not drawn) | -0.17
CCN1CCN(c2cc(C)c3cc(NC(=O)COc4ccc(Cl)cc4)ccc3n2)CC1 | -0.72
O=C(O)c1cccc(S(=O)(=O)Nc2ccc(F)cc2)c1 | -0.36
COc1ccc(C2SCCN2S(=O)(=O)c2ccc(-c3ccccc3)cc2)cc1OC (stereo not drawn) | -0.32
CC(=O)Oc1c(S(=O)(=O)c2ccccc2)c(C)nn1C(C)(C)C | 0.13
CC(C)c1ccc2oc(-c3ccc(NC(=O)c4cccc([N+](=O)[O-])c4)cc3)nc2c1 | -0.45
COc1cc(-c2nc(-c3cccc(C(F)(F)F)c3)no2)cc(OC)c1OC | -0.52
CCOCCOC(=O)C1=C(C)NC(=O)NC1c1cccc(Oc2ccccc2)c1 (stereo not drawn) | -0.01
COc1ccc(NC2=C(Cl)C(=O)N(c3ccc(Br)cc3)C2=O)cc1 | -0.58
CCOC(=O)c1c(NC(=O)c2ccc(Br)o2)sc2c1CCCC2 | 0.35

3 entries from above, arranged by the value under Measles inh, smallest number first:
Compound | Measles inh
CCN1CCN(c2cc(C)c3cc(NC(=O)COc4ccc(Cl)cc4)ccc3n2)CC1 | -0.72
CCOc1ccc(NC(=O)NCCN2C(C)CCCC2C)cc1 (stereo not drawn) | -0.17
CCOCCOC(=O)C1=C(C)NC(=O)NC1c1cccc(Oc2ccccc2)c1 (stereo not drawn) | -0.01

More records follow.
Molecule | Measles inh
CC(=O)CC(=O)N/C(=N\c1nc(C)cc(C)n1)Nc1ccc(C)c(Cl)c1 | -0.18
O=C(Nc1ccc(S(=O)(=O)Nc2nccs2)cc1)c1cc2c(=O)n3ccccc3nc2s1 | 1.5
O=C(CC(C(=O)N1CCc2ccccc21)n1ccnc1)N1CCCC1 (stereo not drawn) | -0.28
O=[N+]([O-])c1sc2ccccc2c1-[n+]1ccccc1 | -1.7
COc1ccc2cc3cc(C(=O)Nc4cc(OC)c(OC)c(OC)c4)oc3nc2c1 | -1.5
CCCCn1c(SCC(=O)NC2CCCCC2)nc2c(sc3ccccc32)c1=O | 1.2
CCn1c2ccccc2c2cc(N3C(=O)C4C5C=CC(C5)C4C3=O)ccc21 (stereo not drawn) | 0.47
Nc1cc(OC(=O)c2cccc(F)c2)nn1S(=O)(=O)c1ccccc1 | 0.84
CCN(C(=O)CSc1nc2[nH]ncc2c(=O)n1-c1ccc(Br)cc1)c1cccc(C)c1 | -0.59
CCCCNC(=O)CC1N=C2c3ccccc3N=C(SCC(=O)Nc3cc(Cl)ccc3OC)N2C1=O (stereo not drawn) | 0.54

Molecule | Measles inh
O=C(CSc1nc2c(sc3ccccc32)c(=O)n1CCc1c[nH]c2ccccc12)NCC1CCCO1 (stereo not drawn) | 1.7
COc1ccc(C(=O)C(=O)c2ccc(OC)cc2)cc1 | -0.13
COCCNC(=O)C(NC(=O)C1CCC(C)CC1)C(C)C (stereo not drawn) | -0.77
Cc1ccc(NC(=O)c2oc3ccc(S(=O)(=O)N4CCOCC4)cc3c2C)cc1Cl | -0.03
CC(=O)c1cccc(Nc2nc(-c3ccccc3)nc3ccccc23)c1 | -0.41
O=C(O)CCSc1n[nH]c(=O)[nH]c1=O | 0.02
Cc1ccc(NC(=O)CSc2nc3ccc(NC(=O)c4ccccc4)cc3s2)cc1Cl | -0.19
CCC(C)NC(=O)CN(c1cc(C(F)(F)F)ccc1Cl)S(C)(=O)=O (stereo not drawn) | -0.53
CCCCN(CC)C(=O)c1oc2ccc(S(=O)(=O)N3CCCC3)cc2c1C | -0.58
Cc1cc(C)cc(C(=O)N2CCN=C2c2ccccc2)c1 | 0.13

Molecule | Measles inh
CC1=C(c2ccccc2)Oc2ccccc2C1c1ccccc1C (stereo not drawn) | 0.48
CCCN(CCC)S(=O)(=O)c1ccc(C(=O)Nc2nc3c(cc4c5c(cccc53)CC4)s2)cc1 | 0.86
CCSc1nnc(NS(=O)(=O)c2ccc(Br)cc2)s1 | -0.08
O=C(Nc1ccc(OCc2ccccc2)cc1)C1c2ccccc2Oc2ccccc21 | 2.1
Nc1nc2ccc(Cc3ccc4nc(N)sc4c3)cc2s1 | -1.7
COc1cc(Br)c(C2C(C(=O)OC3CCCC3)=C(C)NC3=C2C(=O)CCC3)cc1OC (stereo not drawn) | -0.67
COc1cccc(C2SCC(=O)N2c2ccc(Cl)cc2)c1OC (stereo not drawn) | -1.6
O=C1OC2C=CC=CC2=CC1C(=O)N1CCSC1c1ccccc1Cl (stereo not drawn) | 0.34
O=C(CC1CCC1)Nc1ccc(I)cc1 | -0.17
COCCCNC(=O)c1ccc2c(c1)ncn2-c1cccc(F)c1 | -0.12

Shown with values ahead of the structure: 2 of the compounds above.
Measles inh | Structure
0.48 | CC1=C(c2ccccc2)Oc2ccccc2C1c1ccccc1C (stereo not drawn)
0.34 | O=C1OC2C=CC=CC2=CC1C(=O)N1CCSC1c1ccccc1Cl (stereo not drawn)

Other results:
Molecule | Measles inh
CCOC(=O)C1=C(c2ccccc2)N=C2SCC(=O)N2C1c1ccc(OC)c(OC)c1 (stereo not drawn) | 2.7
COC(=O)C1=C(C(=O)OC)SC(=C2C(=S)C(C)(C)N(C(=O)c3ccccc3I)c3cc(OC)ccc32)S1 | 0.26
CCc1ccccc1NC(=O)c1cc2c(=O)[nH]c3ccccc3c2s1 | 0.74
Cc1ccc2c(c1)C(c1ccc(F)cc1)N(C(=O)COc1ccccc1)CC(=O)N2 (stereo not drawn) | -1
CCCCNC(=O)c1ccc(S(=O)(=O)c2ccc(Cl)cc2)c(NC(C)=O)c1 | -0.55
CC12CCC(C(=O)n3c1nc1ccccc13)C2(C)C (stereo not drawn) | 0.99
O=C1CC(Cc2ccccc2)C(=O)N1Cc1ccccc1 (stereo not drawn) | -0.6
Cc1cc(Nc2cccc(C(F)(F)F)c2)nc(N2CCOCC2)n1 | -0.67
Cc1ccc(-n2nc3ccc(NC(=O)c4ccc([N+](=O)[O-])o4)cc3n2)cc1 | -0.19
Cc1cccc(N2CCN(C(=O)CCCn3c(=O)[nH]c4ccc(Br)cc4c3=O)CC2)c1C | -2.1

Reprinted from the part before: 2 compounds; new compounds follow.
Molecule | Measles inh
Cc1ccc(-n2nc3ccc(NC(=O)c4ccc([N+](=O)[O-])o4)cc3n2)cc1 | -0.19
Cc1cccc(N2CCN(C(=O)CCCn3c(=O)[nH]c4ccc(Br)cc4c3=O)CC2)c1C | -2.1
CC(=O)N1CCc2cc(S(=O)(=O)Nc3ccc(C)c(F)c3)ccc21 | -0.72
CN(C)CCNC(=O)C1CCN(S(=O)(=O)N2CCOCC2)CC1 | -0.1
O=C1NCCCC1C1=NC(CO)(CO)CO1 (stereo not drawn) | 0.01
COc1ccc(OCC(O)CN2CCN(c3ccc(OC)cc3)CC2)cc1 (stereo not drawn) | 0.23
Cn1c(SCC(=O)N2CCCCC2)nnc1-c1c[nH]c2ccccc12 | -0.48
Cc1ccc2nc(N3CCC(C(=O)NC4CCCCC4)CC3)[nH]c2c1 | 3.4
CC1CN(S(=O)(=O)c2ccc(C(=O)Nc3nnc(-c4ccccc4Cl)o3)cc2)CC(C)O1 (stereo not drawn) | 0.6
CCCOc1ccc(C2C(=O)N(C3CCCCCC3)CC(=O)N2Cc2ccc(F)cc2)cc1OC (stereo not drawn) | -0.29
CC(=O)n1c2ccccc2c2ccccc21 | -0.88
COc1ccc(-c2c(C(F)(F)F)oc3c(CN4CCN(C)CC4)c(O)ccc3c2=O)cc1OC | -0.27

Molecule | Measles inh
CCOC(=O)Cc1c(O)c2ccccc2[nH]c1=O | 1.4
COc1ccc(N2CCN(C(=O)c3cccn4c(=O)c5ccc(Cl)cc5nc34)CC2)cc1 | 0.39
CCCCSc1nc2c(c(=O)[nH]1)C(C1CCCC1)Cc1ccccc1-2 (stereo not drawn) | -1.6
CCCNC(=O)c1c(NC(=O)c2ccccc2C)sc2c1CCC2 | -0.31
CCOc1cc(C2Nc3ccc4ncccc4c3C3=C2C(=O)CC(C)(C)C3)ccc1O (stereo not drawn) | 0.06
c1nc(SCc2ccc3c(c2)OCO3)c2[nH]cnc2n1 | -0.6
O=C(NCCc1ccccc1)C1CCC(=O)N1Cc1cccnc1 (stereo not drawn) | -1.9
Cc1cccc(N2CCN(C(=O)c3ccc(N4CC5CC(C4)c4cccc(=O)n4C5)c(NC(=O)c4ccc(Br)o4)c3)CC2C)c1 (stereo not drawn) | -0.24
CC1CCCCN1S(=O)(=O)c1ccc(C(=O)Nc2sc3c(c2-c2nc4ccccc4s2)CCN(C)C3)cc1 (stereo not drawn) | 1.6
CC1CCC2(C)c3[nH]c4ccccc4c3CCN2C1=O (stereo not drawn) | 0.71

smiles,Measles inh
O=C(Oc1ccc2c(=O)c(Oc3ccccc3Br)c(C(F)(F)F)oc2c1)c1cccs1,-0.17
CCOc1ccc(-c2n[nH]c(C(F)(F)F)c2-c2ccccc2)c(O)c1C,-2
Cc1noc(C)c1S(=O)(=O)Nc1ccc(C(=O)Nc2cccc(Cl)c2)cc1,-0.42
O=C1C(=O)N(CCCBr)c2ccccc21,0.61
COc1ccc(-c2cc(C(F)(F)F)nc(-n3cnc([N+](=O)[O-])c3)n2)cc1OC,-0.24
O=C1C2CC(Br)C(Br)CC2C(=O)N1c1ccc([N+](=O)[O-])cc1 (stereo not drawn),0.3
Cc1ccc(NC(=O)c2cccc(S(=O)(=O)N3CCCC3)c2)cc1,-0.64
COc1ccc(CNS(=O)(=O)c2cc(Br)cc3c2N(C(=O)C2CC2)CC3)cc1,-0.78

smiles,Measles inh
CCOc1ccc(NC(=O)C(C)Sc2nnnn2-c2cccc3ccccc23)cc1 (stereo not drawn),0.16
O=C(O)CCCc1nc2ccccc2[nH]1,-0.08
COc1ccccc1N1C(=O)CC(NCCOC23CC4CC(CC(C4)C2)C3)C1=O (stereo not drawn),1
CCOc1ccccc1N1CCN(S(=O)(=O)c2ccc(OCC)c3ccccc23)CC1,0.55
COc1cccc(C2=Nn3c(nnc3-c3ccccc3)SC2)c1,0.22
COc1ccc(NC(=O)C(=O)NCC2CCCO2)cc1Cl (stereo not drawn),0.79
NC(=O)c1ccc(NC(=O)CN2CCN(CC(=O)Nc3ccccc3Cl)CC2)cc1,-0.79
CCOC(=O)c1cc2c(=O)n3ccccc3nc2n(CCOC)c1=NC(=O)c1ccc(OC)cc1,-0.16

smiles,Measles inh
COc1ccc(C=Cc2ccc([N+](=O)[O-])cc2)c(OC)c1,0.18
O=c1nc(C=Cc2ccc(Br)cc2)cc(C(F)(F)F)[nH]1,1.8
COc1cc2nc(SCC(=O)c3ccccc3)n3nc(-c4ccccc4)nc3c2cc1OC,-0.85
COC(=O)Cc1n[nH]c(=O)c2ccccc12,-0.13
Cc1cccc(NC(=O)C2CCN(S(=O)(=O)c3cccc4nonc34)CC2)c1C,-0.32
Cc1cc(C)c(Cc2c(C)nc3c(C(=O)NCc4cccnc4)cnn3c2C)c(C)c1,0.17
COc1cccc(CN2CCN(Cc3ccc([N+](=O)[O-])cc3)CC2)c1,-0.03
CCC(C)NC(=O)CCN1C(=O)COc2ccc(C)cc21 (stereo not drawn),1.6

smiles,Measles inh
CCCOc1ccccc1C1NC(=O)NC(C)=C1C(=O)OCc1ccccc1 (stereo not drawn),1.5
CCOc1ccc(C2NC(=O)NC(C)=C2C(=O)OCCSC)cc1OC (stereo not drawn),-1.9
O=C1CC2CS(=O)(=O)CC2N1c1ccccc1 (stereo not drawn),0.9
O=C(NCCCNc1ccc([N+](=O)[O-])cc1)c1ccc(Cl)cc1,0.53
CCOc1ccc(C(=O)Nc2ccc(OC)cc2OC)cc1,-0.66
O=C(NCc1cccnc1)C1c2ccccc2C(=O)N1C1CCCCCC1 (stereo not drawn),0.13
O=C(Nc1cccc(-c2nc3ncccc3o2)c1)c1ccccc1[N+](=O)[O-],0.45
Cc1cc(-c2ccccc2)n(-c2cc(N3CCCCC3)ncn2)n1,-0.3

smiles,Measles inh
COC(=O)c1c(NC(=O)C2c3ccccc3Oc3ccccc32)sc(C)c1C,-1.3
O=C(CCS(=O)(=O)c1cccc2nsnc12)Nc1cccc(C(F)(F)F)c1,-0.5
O=C(Nc1ccccc1Cl)C12CC3CC(CC(C3)C1)C2,-0.48
COc1cc(C2C3=C(CCCC3=O)NC3=C2C(=O)CCC3)ccc1OCc1ccccc1F,0.89
Cn1cc(CC(=O)NCC2(c3ccccc3)CCCC2)c2ccccc21,-0.77
CC(=O)N1CCc2cc(N=Cc3ccc(O)cc3)ccc21,1.3
Cc1occc1C(=O)Nc1nn[nH]n1,-0.46
O=C(O)c1ccc(Sc2ccccc2C(=O)O)c([N+](=O)[O-])c1,0.38

The last 6 entries of the section above are carried over, then new ones follow:
smiles,Measles inh
O=C(Nc1ccccc1Cl)C12CC3CC(CC(C3)C1)C2,-0.48
COc1cc(C2C3=C(CCCC3=O)NC3=C2C(=O)CCC3)ccc1OCc1ccccc1F,0.89
Cn1cc(CC(=O)NCC2(c3ccccc3)CCCC2)c2ccccc21,-0.77
CC(=O)N1CCc2cc(N=Cc3ccc(O)cc3)ccc21,1.3
Cc1occc1C(=O)Nc1nn[nH]n1,-0.46
O=C(O)c1ccc(Sc2ccccc2C(=O)O)c([N+](=O)[O-])c1,0.38
Cc1c(C(=O)NCCC(C)C)sc2ncnc(N3CCOCC3)c12,-1.4
CCOC(=O)c1c(NC(=O)C2C(C=C(Cl)Cl)C2(C)C)sc2c1CCCC2 (stereo not drawn),-0.01
O=C(CCS(=O)(=O)c1ccc(Br)s1)Nc1cccc(C(F)(F)F)c1,-0.47
CCOC(=O)C1CCN(c2nc(-c3cccc(C)c3)nc3ccccc23)CC1,-0.19
CC(C)CCn1c(-c2nonc2N)nc2ccccc21,-0.7
O=C(CN1CCN(Cc2cccc(Cl)c2)C1=O)NCCc1ccccc1,-1.2
c1ccc2sc3c(-c4ccncc4)sc4ccccc4[nH]c-3nc2c1,0.53
O=S(=O)(c1ccc(Br)cc1)N1CCCc2ccccc21,-0.86

smiles,Measles inh
Cc1ccc2cccnc2c1[N+](=O)[O-],0.65
Cc1ccc2c(CC(=O)O)cc(=O)oc2c1,-0.13
COc1cc(C2C(C(=O)Nc3ccc(C)cn3)=C(C)NC3=C2C(=O)CC(C)(C)C3)ccc1O (stereo not drawn),-1.2
CCOc1cccc(C(=O)Nc2ccc(Cl)cn2)c1,-0.83
CN(Cc1ccccc1)C(=O)CCS(=O)(=O)c1ccc(Br)cc1,0.08
CCCCNC(=O)c1cc2cc3cc(OC)ccc3nc2s1,0.89
O=C1CSc2ccc(C(=O)N3CCC(Cc4ccccc4)CC3)cc2N1,-1.2
CCN(CC)S(=O)(=O)c1cc(C(=O)Nc2ccc(OC)cc2)ccc1C,0.55

Screening results as filed in PubChem BioAssay.
